# Screens (PubChem)
# gsp antag: antagonizes gsp, the McCune-Albright syndrome mutation; gsp-mutant cells, cAMP HTRF, 30 min; control for the full effect not named in the record; Potency, µM (doses to about 76.9 µM), for the others: top-dose activity change, negative = inhibition, most hits filed as inhibitors; 340,000 tested, 0.4% active; AID 624288; active = falling curve of any shape with a large fitted effect; inconclusive = falling curve, mostly with a smaller effect; inactive = flat or rising curve; cell line not stated here;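 further: intracellular cAMP measured with PDE inhibitor Ro 20-1724 present during compound exposure; potency means the concentration at half of the fitted maximal effect; on the % scale 0 is the no-effect control and ±100 the full control effect; nearly all actives have a fitted effect of over 65% in size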
#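 HTRF cAMP read-out (cAMP-d2 plus anti-cAMP antibody-K in lysis buffer, 30 min RT). Before lysis, cells are exposed to compounds with […] for 30 min at 37C in DPBS containing Ca/Mg, BSA and Tween 20.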
# ClpP mod: qHTS Assay for Activators of ClpP; ATP-dependent Clp protease proteolytic subunit (Bacillus subtilis (strain 168)), P80244; purified B. subtilis ClpP, FRET peptide cleavage, 20 min; Potency, µM (top dose mostly 57.5 µM), for the others: at the top dose activity change, negative = active; 340,000 tested, 1.9% active; active = well fitted falling curve with a large enough effect; inconclusive = small, poorly fitted or top-dose-only effect; inactive = no such curve, though single readings can be large or run the other way; further: potency means the concentration at half of the fitted maximal effect; the source files actives as falling curves though it sought activators and does not explain the sign; nearly all actives have a fitted effect of over 65% in size; many hits overshoot -100%
# Target sequence (P80244 whole entry, looked up): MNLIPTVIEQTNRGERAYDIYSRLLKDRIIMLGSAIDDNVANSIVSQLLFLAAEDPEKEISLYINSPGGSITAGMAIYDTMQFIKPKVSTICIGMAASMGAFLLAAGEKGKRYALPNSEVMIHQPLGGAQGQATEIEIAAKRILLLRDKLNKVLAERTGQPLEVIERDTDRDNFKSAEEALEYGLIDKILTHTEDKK
#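 Purified B. subtilis ClpP, 10 microg/mL final in Tris/HCl pH8 with KCl, BSA, glycerol and Tween-20, cleaved an Abz/nitrotyrosine-quenched decapeptide. Fluorescence (ex 320, em 430) was read at 0 and 20 min at room temperature. Delta was normalized to 5.8 microM ADEP and DMSO/no-enzyme controls.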
# TRPV1 potentiator: human TRPV1 potentiation | TRPV1-expressing cells, Fluo-8 calcium influx, capsaicin EC20 potentiation; host cell line not named in the record; control for the full effect not named in the record | potentiation, % at 8.33 µM | 320,000 tested, 0.02% active; active means potentiation above 80%; inconclusive means 30% to 80%; inactive means below 30%; further: 0% is about no effect
#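 TRPV1-expressing cells were cultured overnight at 35.5C and loaded with Fluo-8 calcium dye for 40 to 90 min at room temperature. After a 10 s baseline, compound was added and calcium influx was read kinetically for 3 min (ex 480/em 520 nm).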
# TRPML1 inh: inhibitors of human TRPML1 channel. TRPML1-inducible cells, Ca2+ dye fluorescence, FDSS; stronger effect = lower value; inhibition of EC80 agonist-evoked calcium signal. activity change, negative = inhibition, % (test concentration not listed). AID 624415. 390,000 tested, 0.02% active. Q9GZU1; in the data active means activity change below about -50%; inconclusive means about -30% to -50%; inactive means above about -30%;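 further: stimulus is agonist 54-4 at its EC80 concentration; on the % scale 0 is the no-effect control and ±100 the full control effect; compound concentration not given in the record; the text of the record puts the active cut at -80%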
# Target sequence (Q9GZU1 whole entry, looked up): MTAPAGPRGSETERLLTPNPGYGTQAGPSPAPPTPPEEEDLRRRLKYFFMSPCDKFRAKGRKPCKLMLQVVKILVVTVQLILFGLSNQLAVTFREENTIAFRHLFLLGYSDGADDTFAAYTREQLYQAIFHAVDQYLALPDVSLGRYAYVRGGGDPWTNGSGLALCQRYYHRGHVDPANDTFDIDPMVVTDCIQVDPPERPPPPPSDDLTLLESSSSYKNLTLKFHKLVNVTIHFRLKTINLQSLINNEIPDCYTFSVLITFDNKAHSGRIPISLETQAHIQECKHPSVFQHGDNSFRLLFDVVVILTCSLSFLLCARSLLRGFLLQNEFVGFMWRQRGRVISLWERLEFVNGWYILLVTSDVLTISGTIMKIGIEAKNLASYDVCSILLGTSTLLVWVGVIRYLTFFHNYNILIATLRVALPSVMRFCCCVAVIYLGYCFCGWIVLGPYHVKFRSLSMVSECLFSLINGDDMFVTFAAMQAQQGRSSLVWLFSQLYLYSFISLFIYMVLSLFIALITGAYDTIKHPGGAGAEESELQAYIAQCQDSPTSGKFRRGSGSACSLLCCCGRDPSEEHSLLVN
#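 TRPML1-DL cells, Tet-induced overnight (~16 h, 37 °C) at 1,500 cells/well, were loaded with Ca8 no-wash dye plus quencher for 45-90 min at room temperature. Compounds were pinned during FDSS kinetic reading; agonist 54-4 at EC80 (4 uM final) then added.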
# Menin MLL FP FL: displaces fluorescein MLL peptide from human menin; Fluorescence polarization, fluorescein-MLL peptide displacement from menin; FP activity change, % at 61.4 µM; 290,000 tested, under 10 active; AID 1766; inconclusive = falling polarisation curve, or a change in total fluorescence; inactive = total fluorescence flat and polarisation flat or rising; no compound was filed as active; the % refers to the polarisation; negative = inhibition;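 further: % of control where 0% means no effect; inhibitors lower the polarisation; unlabelled MLL peptide was the positive control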
# gsp agonist: agonists of gsp mutant (McCune-Albright syndrome). Potency, µM (titrated, usually from 76.9 µM), inactives show at the highest dose activation (cAMP increase), hits mostly activators. gsp mutant cells, cAMP HTRF, 30 min; control for the full effect not named in the record. 340,000 tested, 0.13% active; active = well fitted activation curve with a large enough effect; inconclusive = small, poorly fitted or top-dose-only effect, or another doubt; inactive = no such curve, though single readings can be large or run the other way; cell line not stated here;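 further: phosphodiesterase inhibitor Ro 20-1724 added with compounds to block cAMP breakdown; potency means the concentration at half of the fitted maximal effect; nearly all actives have a fitted effect of over 60% in size; about a fifth of the inactives were tested at one dose only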
#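 Cells in DMEM/10% FBS with G418 were pretreated with compounds in DMSO plus […] (300 uM stock) for 30 min at 37C. cAMP was measured by HTRF (cAMP-d2 plus anti-cAMP antibody-K) after 30 min at room temperature.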
# Sfp inh: Sfp phosphopantetheinyl transferase inhibition. 310,000 tested, 3.5% active. Potency, µM, for inactives: max response, negative = inhibition, most hits filed as inhibitors. Biochemical Sfp PPTase activity, qHTS. Q9F4F7; active means well fitted inhibition curve with a large enough effect; inconclusive means small, poorly fitted or top-dose-only effect, or another doubt; inactive means no such curve, though single readings can be large or run the other way;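 further: the enzyme is Sfp with the accession as filed and its product quenches rhodamine fluorescence; potency means the concentration at half of the fitted maximal effect; 0% = enzyme reaction without inhibitor and -100% = no enzyme wells; top concentration of the series not given in the record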
#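 Step 1, compound plus 15 nM Sfp-PPTase, 15 min, room temperature. Step 2, add rhodamine-CoA (5 uM) and BHQ-2-YbbR (12.5 uM). Step 3, read 525/598 nm fluorescence at 0 and 30 min.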
# * hit, by the source's call; u = inconclusive; x = no result given; [ ] = dose if it differs, or a comment.
molecule	TRPML1 inh	Sfp inh	gsp agonist	gsp antag	Menin MLL FP FL	ClpP mod	TRPV1 potentiator
COc1ccc(S(=O)(=O)Cc2ccccc2)cc1N	7.2	21.5%	2.6%	1.4%	4.3	1.0%	-1.1
CCOC(=O)C1(CCOc2ccccc2)CCN(Cc2cccc(OC)c2O)CC1	5.5	1.1%	-102.4%[inhibitor]	-0.7%	3.5	x	-15.5
OCC1(Cc2cccc(C(F)(F)F)c2)CCN(Cc2cc3ccccc3o2)CC1	-2.8	26.7%	-2.8%[15.4 µM]	4.7%	-0.3	x	-18.0
CCOCCCNCc1cc(Cl)cc(Cl)c1OCC	4.5	-17.9%	-8.5%	0.6%	-2.6	-1.0%	-7.3
COc1ccc(Cn2nnnc2CN(CCCN2CCOCC2)Cc2cc3cc(OC)ccc3[nH]c2=O)cc1	-0.2	3.1%	15.5%[15.4 µM]	-27.9%	1.4	-1.8%	5.7
COCCNC(=O)c1c(N)sc2c1CCCC2	x	14.1µM*	x	x	3.0	x	-8.6
CCOC(=O)c1cnc2c(-c3ccccc3)c(C)nn2c1N	-6.1	12.7%	5.5%	-1.1%	0.6	7.1%	-3.6
O=C(Cn1cnc2cc([N+](=O)[O-])ccc2c1=O)Nc1cccc(S(=O)(=O)N2CCOCC2)c1	20.5	-3.4%	6.6%[15.4 µM]	x	-2.4	x	18.1
N#Cc1cc2cc3c(cc2nc1SCC(=O)N1CCCC1)OCCO3	1.7	-3.1%	14.3%	-7.7%	-5.9	x	7.3
Cc1cnc(C(=O)OC(C)C(=O)NCc2ccccc2)cn1 (stereo not drawn)	2.5	x	2.5%[15.4 µM]	8.7%	x	-1.5%	14.6
CCOC(=O)c1nn(-c2ccc(F)cc2)c(=O)c2c(N)scc12	4.8	50.1µM*	22.5%	-2.6%	-17.1	x	4.7
CC(=O)Nc1ccc(S(=O)(=O)NCCC(=O)OC(C)C(=O)NC2(C#N)CCCCC2)cc1 (stereo not drawn)	-11.9	x	7.1%	-0.3%	x	-0.7%	5.9
COc1ccc2nc(SCC(=O)NN)cc(C)c2c1	-8.8	8.2%	4.6%	11.2%	2.3	-0.2%	15.4
CCOC(=O)[C@H]1[C@H]2COc3ccc(Br)cc3[C@@H]2N2C(=O)CN(CC3CCCO3)C(=O)[C@@]12C (stereo partly drawn)	6.4	x	-42.9%[inhibitor]	1.2%	x	0.8%	-2.3
N#Cc1cnn(Cc2ccccc2)c1N	-19.3	16.9%	15.2%	2.3%	1.8	-19.0%	-16.6
CCN1CCN(Cc2cc(=O)oc3cc(C)cc(C)c23)CC1	9.7	0.1%	0.5%	9.0%	1.1	-0.9%	2.8
COc1cccc(/C=C2\Sc3ccc(C(=O)NCC4CCCO4)cc3N(C)C2=O)c1 (stereo not drawn)	19.6	-0.2%	u	u	-0.2	-3.3%	u
CSc1ccccc1C(=O)NCCc1ccc(S(=O)(=O)N2CCCCC2)cc1	-4.3	3.5%	-16.8%	-4.1%	1.4	-0.4%	5.9
CCNC(=O)C(C)NC(=O)C1=NN(c2ccccc2)C(=O)CC1 (stereo not drawn)	3.5	-4.3%	2.9%[15.4 µM]	6.0%	0.6	x	4.1
O=C(OC1CCOC1=O)c1cccc(S(=O)(=O)Nc2cccc(Cl)c2)c1 (stereo not drawn)	-7.3	23.3%	1.0%	-5.9%	0.5	-1.9%	2.9
COc1ccc(Cl)cc1NC(=O)Cn1c(C)csc1=O	-6.1	x	8.9%	13.2%	x	0.6%	6.2
CN(CC(=O)Nc1ccccc1Cl)C(=O)COC(=O)c1nc(Cl)c(Cl)c(Cl)c1Cl	4.4	3.2%	-16.1%	-12.2%	-5.3	-0.4%	-12.4
O=C(CSc1ncnc2c1cnn2-c1ccccc1Cl)N1CCN(C(=O)c2ccco2)CC1	3.5	15.1%	-17.4%	-33.5%	-0.3	-0.6%	-3.9
CCOc1ccccc1N(C(=O)c1snc(C(N)=O)c1N)C(CC)C(=O)NC1CCCC1 (stereo not drawn)	-15.4	-4.1%	7.2%	-13.1%	-1.6	-25.2%	-28.9
CC1CCCCC12NC(=O)N(CC(=O)Nc1nccs1)C2=O (stereo not drawn)	21.1	x	3.2%	11.0%	x	x	x
Clc1ccc(-c2ccc(CNCC3CCCO3)o2)cc1 (stereo not drawn)	-14.1	13.9%	u	-0.1%	2.8	x	2.6
COc1ccccc1C(=O)Nc1ccc(C)cc1C(=O)c1ccccc1	5.7	0.0%	2.4%	-6.1%	3.5	-19.3%	-8.0
Cc1cc(S(=O)(=O)Nc2ccc3c(c2)n(C)c(=O)n3C)ccc1F	-20.8	7.0%	-15.9%	-2.6%	-2.5	x	-2.5
CN(C)C(=O)N1CCC(C(=O)NCc2ccc(F)cc2Cl)CC1	11.6	19.8%	13.9%	-0.9%	0.3	0.2%	14.4
Cc1cc(C)c(C(=O)CSc2nnc(C)s2)c(C)c1	18.2	-8.0%	-33.3%	-7.6%	-1.0	x	-8.6
CCOCCCNC(=O)C1CCN(S(=O)(=O)c2ccc(C)cc2)CC1	1.4	6.7%	19.6%	12.1%	-0.1	-1.1%	8.7
O=c1c2ccccc2c(-c2ccccc2)nn1Cc1ccccc1	9.3	14.6%	-14.3%	-1.1%	4.1	-1.8%	-7.7
O=C(Cn1ncc2c(=O)oc3ccccc3c21)N1CCN(c2ccccn2)CC1	-14.0	14.5%	-27.6%	-3.5%	1.4	-28.4%	6.8
CC(C)Cc1nnc(NC(=O)c2cccc(S(=O)(=O)N3CCN(C)CC3)c2)s1	3.2	x	u	1.5%	x	0.7%	-12.4
COCCNC(=O)COC(=O)C1=Cc2ccccc2OC1	20.6	14.6%	-2.4%	8.8%	1.3	-5.1%	6.8
CCO[C@H]1OC(C(=O)N2CCCCCCC2)=C[C@@H](c2csc3ccccc23)[C@@H]1CCCO	25.9	3.4%	x	-1.6%	-6.9	-0.3%	-9.3
NCCCSC1=NCCCN1	1.9	20.2%	25.0%	1.3%	1.9	0.0%	-5.4
Clc1ccccc1OCc1nnc2n1CCCCC2	x	11.5%	-1.8%	7.8%	2.4	-1.8%	-0.9
CN(Cc1ccccc1)C(=O)c1nc[nH]c1C(=O)N(C)Cc1ccccc1	7.1	x	0.2%	6.9%	x	1.5%	1.7
CCCCN(C(=O)C(C)Oc1ccc(Cl)cc1)c1c(N)n(CCCC)c(=O)[nH]c1=O (stereo not drawn)	1.4	x	-30.3%[inhibitor]	4.9%	x	-2.5%	6.2
Cc1nn(CC(=O)NCC(C)c2ccccc2)c(=O)c2cccn12 (stereo not drawn)	2.8	6.7%	u	10.3%	-1.0	-0.7%	8.4
N#CCCN(C(=O)COC(=O)CCc1c[nH]c2ccccc12)c1ccc(F)cc1	-2.9	x	-1.3%	-2.3%	x	3.3%	12.3
CCOC(=O)c1c(C)[nH]c(C)c1C(=O)COC(=O)/C=C/c1ccc(OC)cc1	-3.4	x	-5.0%	10.1%	x	15.8µM*	1.9
NCCCCCc1nnc(SCc2ccccc2Cl)o1	4.4	5.0%	2.4%	6.9%	0.7	-1.3%	-0.3
CCC(=O)NNc1nc2c(F)cc(F)cc2s1	20.2	0.1%	-31.7%[inhibitor]	4.5%	-0.4	1.0%	-4.2
C/C=C/C1=CC(=O)C[C@H](c2ccc(F)cc2)C1	24.9	x	14.9%	-4.5%	x	-0.9%	-18.9
CN1CCc2nc(NC(=O)COc3ccc(C#N)cc3)sc2C1	-5.8	17.6%	-10.2%[15.4 µM]	9.4%	-4.7	1.4%	-0.3
Cc1ccc(NC(=O)COC(=O)CNC(=O)c2ccco2)cc1	-6.7	15.9%	-8.3%	1.5%	5.8	x	-1.1
O=C(Nc1ccc(-n2cc(Cl)cn2)cc1)c1ccncc1	6.7	10.1%	-1.8%	-6.7%	1.1	39.2%	19.5
O=C1NC[C@H](Cc2ccccc2)N(CCc2cccc(F)c2)C1=O	-5.1	13.2%	10.6%	5.2%	-4.4	-0.6%	-6.0
COc1ccc(N2CCN(C(CNC(=O)c3cccs3)c3ccco3)CC2)cc1 (stereo not drawn)	5.0	x	-6.9%	3.6%	x	15.8µM*	11.4
COc1ccc(CCC(=O)N2CC(C)OC(C)C2)cc1 (stereo not drawn)	35.6	3.2%	-6.9%	9.2%	3.2	-1.9%	-3.5
COCCN(C(=O)Nc1ccccc1)c1ccccc1	7.9	13.7%	-22.2%	1.5%	-2.2	0.9%	-9.8
CCOc1ccc(S(=O)(=O)Nc2ccc(C(=O)NCC(c3ccco3)N(C)C)cc2)cc1 (stereo not drawn)	0.3	8.8%	u	1.5%	-2.6	2.1%	-4.7
CCNc1nc(CN2CCCCC2)nc2scc(-c3ccccc3)c12	9.1	5.1%	-26.3%	11.0%	2.7	x	6.4
CC(C)(C)OC(=O)N1CCC(C(=O)Nc2ccc(C(=O)N3CCOCC3)cc2)CC1	-0.5	x	-9.4%	7.8%	x	-0.5%	x
C=CCn1c(N)c(C(=O)Nc2ccc(C)cc2)sc1=S	-4.4	-2.1%	-30.3%[inhibitor]	13.1%	-0.5	1.3%	-14.0
C#CCOCCOCCOCCNc1nc(N2CCN(C(=O)[C@H](CCC(=O)O)n3cc(C(N)CC(C)C)nn3)CC2)nc(N2CCN(C(=O)[C@H](Cc3cc4ccccc4[nH]3)n3cc(C(N)[C@H](C)CC)nn3)CC2)n1 (stereo partly drawn)	-1.4	2.9%	x	0.1%	0.2	-5.2%	-11.1
